StopGo reporter: High Throughput Screening for Foot and Mouth Disease Virus Antivirals; human cells with a luciferase reporter of 2A StopGo recoding; control for the full effect not named in the record; Potency, µM (doses to about 57.9 µM), for inactives: at the top dose signal change, negative = less light; hit rate 1.2% among 410,000; AID 1159524, 2015; active = well fitted falling curve with a large enough effect; inconclusive = small, poorly fitted or top-dose-only effect; inactive = no such curve, though single readings can be large or run the other way; tested in HEK293T cells; note: % is set by controls: 0 for no effect and ±100 for the full control effect; nearly all actives have a fitted effect of over 45% in size; luciferase light after 4 h
Cruzain inh Det: qHTS Assay for Promiscuous and Specific Inhibitors of Cruzain (with detergent). AID 1478, 2009. hit rate 0.43% among 200,000. purified cruzain, Z-FR-AMC fluorescence, 0.01% Triton. Potency, µM, for inactives: max response, negative = inhibition, most hits filed as inhibitors; active = well fitted curve in the direction sought with a large enough effect; inconclusive = small, poorly fitted or top-dose-only effect, or another doubt; inactive = no such curve, though single readings can be large; an effect the other way counts as inactive or inconclusive;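 note: plate controls were neutral wells for no effect and buffer without enzyme for full effect; nearly all actives have a fitted effect of over 40% in size; top concentration of the series not given in the record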
Target sequence (P25779 123-467 limits assumed): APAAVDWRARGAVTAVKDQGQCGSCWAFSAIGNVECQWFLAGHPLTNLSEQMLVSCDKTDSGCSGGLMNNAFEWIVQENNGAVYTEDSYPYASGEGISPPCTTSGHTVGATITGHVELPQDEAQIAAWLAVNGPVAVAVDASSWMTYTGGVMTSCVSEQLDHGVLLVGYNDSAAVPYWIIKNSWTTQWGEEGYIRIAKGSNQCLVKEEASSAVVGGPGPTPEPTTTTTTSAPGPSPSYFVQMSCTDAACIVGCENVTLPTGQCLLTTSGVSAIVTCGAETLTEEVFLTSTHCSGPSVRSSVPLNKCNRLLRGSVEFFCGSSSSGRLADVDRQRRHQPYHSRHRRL
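Detergent-containing run (0.01% Triton X-100) in acetate buffer pH 5.5 with 5 mM DTT: enzyme at 1.5 nM final, 15 min compound preincubation at room temperature, then 2 uM Z-FR-AMC substrate. Activity taken as 60 s fluorescence increase at 360/450 nm.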
Lassa entry inh: qHTS for Inhibitors of binding or entry into cells for Lassa Virus; Potency, µM (top dose mostly 37.9 µM), for inactives: at the top dose activity change, negative = inhibition, usual class: inhibitors; AID 540256, 2011; Lassa virus pseudotype entry inhibition, cell reporter; control for the full effect not named in the record; hit rate 1.2% among 300,000; active means well fitted inhibition curve with a large enough effect; inconclusive means small, poorly fitted or top-dose-only effect, or effect the other way; inactive means flat fitted curve, though single readings scatter; tested in HEK293 cells; note: % is set by controls: 0 for no effect and ±100 for the full control effect; nearly all actives have a fitted effect of over 50% in size; luciferase read-out
NS1 function inh: qHTS Assay for Inhibitors of Influenza NS1 Protein Function | S. cerevisiae slowed by influenza A NS1, growth recovery by OD600 | Potency, µM (highest dose often 46.1 µM), without a hit: top-dose activity, positive = more growth | hit rate 0.4% among 270,000; note: actives are rising curves; nearly all actives have a fitted effect of over 50% in size
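Recovery from NS1-induced slow growth read by OD600 in budding yeast switched to galactose assay medium (pH 6.0, -URA) at 1:100 dilution. Compound 23 nl per well; the matching strain lacking NS1 serves as control.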
RE007 growth inh: qHTS Assay for Inhibitors of the HIV-1 protein Vpr; S. pombe RE007 Vpr strain, BacTiter-Glo ATP luminescence, 24 h; control for the full effect not named in the record; Potency, µM (series often up to 92.2 µM), inactives show at the highest dose activity change, negative = less growth; hit rate 0.21% among 360,000; AID 651644, 2012; active = well fitted falling curve with a large enough effect; inconclusive = small, poorly fitted or top-dose-only effect; inactive = no such curve, though single readings can be large or run the other way;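 note: % is set by controls: 0 for no effect and ±100 for the full control effect; nearly all actives have a fitted effect of over 50% in size; the assay follows cell death caused by Vpr and the record does not say whether a fall means rescue or toxicity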
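Fission yeast RE007 carrying one integrated HIV-1 vpr copy, seeded at OD 0.01 in PMG+AL medium with 23 nL pinned compound. Grown 24 h at 30 degrees; viability read by BacTiter-Glo luminescence after 5 min.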
Cruzain noTriton: qHTS Assay for Promiscuous and Specific Inhibitors of Cruzain (without detergent); Cruzipain (Trypanosoma cruzi), P25779; Potency, µM, for the others: max response, negative = inhibition, hits mostly inhibitors; AID 1476, 2009; purified cruzain, Z-FR-AMC fluorescence, no detergent; hit rate 2.3% among 200,000; active = well fitted curve in the direction sought with a large enough effect; inconclusive = small, poorly fitted or top-dose-only effect, or another doubt; inactive = no such curve, though single readings can be large; an effect the other way counts as inactive or inconclusive;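 note: plate controls were enzyme without inhibitor for no effect and buffer without enzyme for full effect; nearly all actives have a fitted effect of over 40% in size; top concentration of the series not given in the record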
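Detergent-free condition (0.00005% Triton X-100) in acetate buffer pH 5.5 with DTT. 1.5 nM enzyme and compound were pre-mixed 15 min, then 2 uM Z-FR-AMC substrate added; reaction progress from fluorescence change between first and third reads (60 s).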
SARS PLpro yeast: qHTS of Yeast-based Assay for SARS-CoV PLP; S. cerevisiae expressing SARS-CoV PLpro, growth rescue; control for the full effect not named in the record; Potency, µM (top dose mostly 32.9 µM), inactives show at the highest dose activity, positive = growth rescue; hit rate 0.19% among 330,000; note: 0% is about no effect; nearly all actives have a fitted effect of over 55% in size; growth read by luminescence after 48 h
Marburg entry inh: qHTS for inhibitors of binding or entry into cells for Marburg Virus. Marburg virus pseudotyped entry inhibition, cell reporter; control for the full effect not named in the record; about a third of the inactives were read at about 46 µM. Potency, µM (series often up to 37.8 µM), for the others: at the top dose activity change, negative = inhibition, most hits filed as inhibitors. hit rate 1.8% among 300,000. AID 540276, 2011; active = well fitted inhibition curve with a large enough effect; inconclusive = small, poorly fitted or top-dose-only effect, or effect the other way; inactive = flat fitted curve, though single readings scatter; tested in HEK293 cells; about a fifth of its hits are not listed in these tables; note: % is set by controls: 0 for no effect and ±100 for the full control effect; luciferase read-out
* hit, by the source's call; ? = inconclusive; . = no result given; [ ] = another dose, or the depositor's remark. Unless noted, calls come from the whole dose curve; as a rule, active means well fitted rising curve with a large enough effect; inconclusive means small, poorly fitted or top-dose-only effect; inactive means no such curve, though single readings can be large or run the other way. Potency is the fitted concentration of half-maximal effect.

SMILES | StopGo reporter | Cruzain inh Det | Lassa entry inh | NS1 function inh | RE007 growth inh | Cruzain noTriton | SARS PLpro yeast | Marburg entry inh
Cc1cccc(NC(=O)CNC(=O)c2ccc3nc[nH]c3c2)c1C | 2% | . | ? | . | 3% | . | 1% | -6%
O=C(COC(=O)C1=NN(c2ccccc2)C(=O)CC1)Nc1nc(-c2ccc(F)cc2)cs1 | 45%[activator] | . | ? | . | 2% | . | 5% | -19%
CC(=O)N(C)c1ccc(NC(=O)N2CCOCC2)cc1 | 7% | . | 10% | 7% | 10% | . | 2% | 9%
COc1ccc2[nH]cc(CCNC(=O)Nc3c(C)cccc3C)c2c1 | -18% | -2.2% | 19%[46.1 µM] | . | . | 2% | . | 16%[46.1 µM]
CN(C(=O)c1ccc2c(c1)OCCO2)c1c(N)n(Cc2ccccc2)c(=O)[nH]c1=O | -7% | . | -7% | . | -1% | . | 2% | -4%[46.1 µM]
CC(C)(CC(=O)c1ccccc1)CC(=O)c1ccccc1 | -20% | . | 14% | . | 22% | . | . | -4%
CNS(=O)(=O)c1cccc(C(=O)OCCCOC(=O)c2cccc(S(=O)(=O)NC)c2)c1 | 0% | . | ? | -6% | -5% | . | -3% | -15%
CSc1cccc(NC(=O)/C=C/c2cccc(Cl)c2)c1 | -13% | -4.9% | ? | -117% | -30% | -10% | -75% | ?
CN(C(=O)COC(=O)c1ccc(S(=O)(=O)N2CCOCC2)cc1)C1CCCCC1 | -6% | . | -17% | . | -4% | . | -1% | ?
O=C(NCCCN1CCCC1=O)C(=O)NCC1OCCN1S(=O)(=O)c1ccc(Br)cc1 (stereo unspecified) | -22% | . | 13% | -2% | -1% | . | -2% | ?
CC(C)c1nnc(NC(=O)CCC(=O)N2CCN(c3cccc(Cl)c3)CC2)s1 | -10% | . | -20%[46.1 µM] | 10% | -2% | . | . | -9%[46.1 µM]
NC(=O)C1CC(=O)N(c2ccc(OCc3ccc(Cl)cc3Cl)cc2)C1 (stereo unspecified) | 40%[activator] | . | . | -2% | 90% | . | -1% | .
COc1cc(OC)cc(C(=O)Nc2cccnc2)c1 | 49%[activator] | . | 3%[46.1 µM] | . | -10% | . | -6% | 10%[46.1 µM]
Cc1ccc(C)c(S(=O)(=O)Nc2ccc(O)cc2)c1 | -1% | 0.6% | -17% | -9% | 9% | -4% | -4% | ?
COc1ccccc1NC(=O)C1CCN(c2ncccn2)CC1 | -3% | 0.8% | 20% | -4% | 9% | -4% | -1% | -4%
CCCCCc1ccc(-c2ccc(C(=O)Oc3ccc(C(=O)OC)cc3)cc2)nc1 | -23% | -1.2% | ? | . | . | -4% | . | .
COc1ccc(NC(=S)N2CCN(C)CC2)cc1 | 9% | . | -3% | . | -4% | . | . | ?
CCC(=O)N1CCc2cc(S(=O)(=O)NCCC(=O)NC3CCCc4ccccc43)ccc21 (stereo unspecified) | -9% | 1.9% | 0% | -3% | -7% | 13% | 1% | 6%
COc1ccc(CCN(C(=O)Cn2nnc3ccccc32)C(C(=O)NCC2CCCO2)c2ccncc2)cc1OC (stereo unspecified) | 15% | . | 6% | 1% | -13% | . | 0% | -7%[46.1 µM]
Cc1ccc(-n2ncc(C#N)c2/N=C/N2CCN(C)CC2)cc1 | -4% | 2.5% | -1% | 10% | -9% | -5% | 2% | -5%[46.1 µM]
Cc1ccccc1C(=O)NC(=S)Nc1ccccc1N1CCCC1 | -5% | . | -21% | 2% | -6% | . | -1% | -22%
Cc1ccc(Cn2c(=O)n(Cc3ccc(C(=O)NC4CCN(Cc5ccccc5)CC4)cc3)c(=O)c3ccccc32)cc1 | -11% | 0.5% | ? | . | . | -7% | . | -8%[46.1 µM]
CCn1nnnc1NC(=O)c1cc(OC)c(OC)c(OC)c1 | 18% | . | . | 1% | -16% | . | 12% | 1%[46.1 µM]
Cc1cc(C)cc(N(CC(=O)NCCSc2ccccn2)S(=O)(=O)c2ccccc2)c1 | -18% | -2.6% | ? | -9% | 6% | 4% | 8% | ?
Cc1nc(S/C(=C\c2ccc(-c3ccc(C(=O)O)c(Cl)c3)o2)C(=O)O)n[nH]1 | -5% | . | . | 4% | 20% | . | 1% | .

(cont.)
SMILES | StopGo reporter | Cruzain inh Det | Lassa entry inh | NS1 function inh | RE007 growth inh | Cruzain noTriton | SARS PLpro yeast | Marburg entry inh
Cc1nc2ccsc2c(=O)n1-c1ccccc1Cl | 10% | . | 4% | . | 1% | . | . | ?
COc1ccccc1CN(C)C(=O)COC(=O)c1cc(C)oc1C | -17% | . | 2% | . | 16% | . | -4% | 4%[46.1 µM]
Cc1ccc(S(=O)(=O)N2CCN(C)CC2)cc1 | 4% | . | . | 4% | 2% | . | 2% | .
COc1ccccc1C(=O)Oc1ccc(C(C)(C)C)cc1 | 27% | -5.8% | 5% | -50% | -13% | -4% | -8% | 27%
COc1ccc(CN2CCCC(CO)(Cc3ccc(F)cc3F)C2)cc1 (stereo unspecified) | -4% | . | -42%[46.1 µM] | 20% | -3% | . | 11% | 10µM*
CC1=CCC2C(=O)N(c3cccc(C(=O)Nc4ccccc4Cl)c3)C(=O)C2C1 (stereo unspecified) | 10% | . | -1% | -35% | -10% | . | 4% | 4%
COc1ccccc1NC(=S)N1C2CCC1CC(NC(=O)NC13CC4CC(CC(C4)C1)C3)C2 (stereo unspecified) | -15% | 4.2% | 5% | 16% | 6% | 5% | 4% | 0%
Cc1cc(-c2ccc(C(C)C)c(S(=O)(=O)NCc3ccco3)c2)on1 | 61%[activator] | . | . | -18% | 10% | . | -12% | .
CC(=O)c1c(C)[nH]c(C(=O)Nc2cc(C)cc(C)c2)c1C | 48%[activator] | -2.4% | 7% | -19% | -4% | -4% | -11% | -2%
S=c1[nH]nc(Cc2c[nH]c3ccccc23)o1 | . | 3.0% | 12% | 3% | -1% | -2% | -2% | 0%
Cc1c(N=Cc2ccc[nH]2)c(=O)n(-c2ccccc2)n1C | 5% | 5.2% | -11% | 5% | 9% | 0% | ? | 6%
COc1ccc(C=C2C(=O)NC(=S)NC2=O)cc1OC | -27% | . | 13%[46.1 µM] | . | -15% | . | . | 0%[46.1 µM]
C=CCc1ccc(OCCn2cccc2C=O)c(OC)c1 | 0% | 0.2% | ? | -21% | 0% | 0% | -2% | ?
CC(C)C(=O)Nc1ccc(NC(=O)c2ccccn2)cn1 | -58% | 3.0% | ? | -6% | -16% | -7% | 1% | 11µM*
COc1cccc(OC)c1-c1nn(-c2ncc(C(F)(F)F)cc2Cl)c(=O)o1 | 7% | . | 21%[46.1 µM] | 3% | 2% | . | 0% | 13%[46.1 µM]
O=[N+]([O-])c1ccc(CN2CCN(c3ccccc3Cl)CC2)o1 | -11% | . | . | -5% | 0% | . | -12% | .
CC(C)N(N=Nc1ccc([N+](=O)[O-])cc1)C(C)C | -13% | -4.9% | -9% | 6% | 0% | 6% | 2% | 18%
Cc1ccc(NC(=O)C2CCC(=O)N2)cc1C (stereo unspecified) | 2% | 2.3% | -3% | -3% | -1% | -2% | -8% | 16%
O=[N+]([O-])c1ccc2c(c1Nc1ccccc1Cl)=NC1(CCCCC1)N=2 | -31% | . | . | -2% | 0% | . | 0% | .
c1ccc(Cc2noc(CN3CCC(CN4CCOCC4)CC3)n2)cc1 | 5% | . | 24% | 9% | 0% | . | 0% | 2%[46.1 µM]
Cc1cccc2c1-c1sc(C(=O)N(C)c3cccc(C(F)(F)F)c3)cc1CO2 | 0% | -12% | . | . | . | 14% | . | -8%[46.1 µM]
CC(=O)N1CCN(C(=O)c2ccc(C(=O)c3ccccc3)cc2)CC1 | -10% | . | . | 0% | -18% | . | 0% | .
Nc1cc(S(=O)(=O)Nc2ccc(Cl)cc2)ccc1N1CCOCC1 | -9% | . | ? | 6% | 2% | . | 0% | ?
COc1ccc(-c2cc(C(=O)OCC(=O)c3ccc(C)cc3)c3cccc(Cl)c3n2)cc1 | 8% | -2.7% | -8%[46.1 µM] | . | . | -1% | . | ?
CC(=O)NC(=S)Nc1ccc2oc(=O)ccc2c1 | 28% | . | 2% | -3% | -11% | . | 0% | 4%[46.1 µM]

(more compounds)
SMILES | StopGo reporter | Cruzain inh Det | Lassa entry inh | NS1 function inh | RE007 growth inh | Cruzain noTriton | SARS PLpro yeast | Marburg entry inh
CC(C)CC(NC(=O)c1ccc(Cl)cc1)C(=O)OCc1cc([N+](=O)[O-])cc2c1OCOC2 (stereo unspecified) | -6% | -16% | 0% | -33% | 66% | 12% | 7% | -19%
COc1ccccc1Cn1c(=S)[nH]c2ccccc2c1=O | 10% | . | -8%[46.1 µM] | 6% | 5% | . | 1% | 10%[46.1 µM]
Cc1cc(C)c(OCC(=O)Nc2nc(-c3ccccn3)cs2)c(C)c1 | -2% | . | ? | . | -23% | . | -14% | ?
CCOc1cc(S(=O)(=O)NCc2ccccc2)c(OCC)cc1-n1cnnn1 | 63% | . | 8% | . | 10% | . | . | -14%
OCC1OC(n2cnc3c(=S)nc[nH]c32)CC1O (stereo unspecified) | -9% | . | -3%[46.1 µM] | . | 2% | . | . | -16%
CCc1cc2cc(C)ccc2nc1SCC(=O)N1CC(=O)Nc2ccccc21 | -20% | . | . | 5% | 2% | . | -5% | ?
COc1ccc(CCn2c(O)c(/C=N/N3CCCCC3)c(=O)[nH]c2=O)cc1OC | ? | -1.4% | ? | 6% | 9% | -11% | -5% | 13%
CCC(C)n1c(=N)c(C(=O)NC2CCCCC2)cc2c(=O)n3ccccc3nc21 (stereo unspecified) | -13% | -6.7% | ? | . | . | ? | . | -2%[46.1 µM]
CCCCOc1ccc(CON(C(C)=O)C(C)=O)cc1Cl | 0% | . | . | 0% | 5% | . | 0% | .
CCOC(=O)N1CCN(Cc2nc(-c3ccc(OC)cc3)no2)CC1 | -23% | . | ? | . | -8% | . | . | -11%
CC(C)N(C(=O)NC(=O)Nc1ccccn1)S(C)(=O)=O | 9% | -4.0% | 10% | 4% | -8% | -2% | 9% | 22%[46.1 µM]
COc1ccc(CNC(=O)N[C@@H](Cc2c[nH]c3ccccc23)C(=O)O)cc1 | 40%[activator] | . | 24%[46.1 µM] | 4% | -5% | . | -1% | 22%[46.1 µM]

From PubChem
